High-throughput results (PubChem)
SARS PLpro yeast: qHTS of Yeast-based Assay for SARS-CoV PLP; 0.19% of 330,000 active; AID 485353, 2010; S. cerevisiae expressing SARS-CoV PLpro, growth rescue; control for the full effect not named in the record; Potency, µM (top dose mostly 32.9 µM), for inactives: at the highest dose activity, positive = growth rescue; active means well fitted rising curve with a large enough effect; inconclusive means small, poorly fitted or top-dose-only effect; inactive means no such curve, though single readings can be large or run the other way; further: 0% is about no effect; nearly all actives have a fitted effect of over 55% in size; growth read by luminescence after 48 h
Cruzain inh Det: qHTS Assay for Promiscuous and Specific Inhibitors of Cruzain (with detergent); 0.43% of 200,000 active; purified cruzain, Z-FR-AMC fluorescence, 0.01% Triton; AID 1478, 2009; Cruzipain (Trypanosoma cruzi), P25779; Potency, µM, for inactives: max response, negative = inhibition, actives largely listed as inhibitors;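 further: plate controls were neutral wells for no effect and buffer without enzyme for full effect; nearly all actives have a fitted effect of over 40% in size; top concentration of the series not given in the record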
Target sequence (P25779 123-467 limits assumed): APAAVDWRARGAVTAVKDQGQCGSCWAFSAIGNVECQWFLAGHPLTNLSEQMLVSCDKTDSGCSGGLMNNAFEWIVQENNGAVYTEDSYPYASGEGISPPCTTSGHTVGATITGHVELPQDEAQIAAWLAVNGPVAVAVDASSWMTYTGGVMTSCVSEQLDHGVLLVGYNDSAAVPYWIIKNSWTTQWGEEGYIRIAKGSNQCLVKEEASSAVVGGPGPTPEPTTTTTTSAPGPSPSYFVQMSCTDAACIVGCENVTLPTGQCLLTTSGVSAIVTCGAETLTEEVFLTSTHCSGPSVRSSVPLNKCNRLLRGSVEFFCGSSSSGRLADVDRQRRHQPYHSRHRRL
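Enzyme 1.5 nM, Z-FR-AMC 2 uM, NaOAc 100 mM pH 5.5, DTT 5 mM, Triton X-100 0.01%; 15 min RT compound preincubation; kinetic ex360/em450, 60 s delta.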
Cruzain noTriton: qHTS Assay for Promiscuous and Specific Inhibitors of Cruzain (without detergent); Cruzipain (Trypanosoma cruzi), P25779; purified cruzain, Z-FR-AMC fluorescence, no detergent; Potency, µM, inactives show max response, negative = inhibition, actives largely listed as inhibitors; 2.3% of 200,000 active; AID 1476, 2009;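 further: plate controls were enzyme without inhibitor for no effect and buffer without enzyme for full effect; nearly all actives have a fitted effect of over 40% in size; top concentration of the series not given in the record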
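Detergent-free condition (0.00005% Triton X-100) in acetate buffer pH 5.5 with DTT. 1.5 nM enzyme and compound were pre-mixed 15 min, then 2 uM Z-FR-AMC substrate added; reaction progress from fluorescence change between first and third reads (60 s).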
NS1 function inh: qHTS Assay for Inhibitors of Influenza NS1 Protein Function; S. cerevisiae slowed by influenza A NS1, growth recovery by OD600; Potency, µM (highest dose often 46.1 µM), without a hit: at the top dose activity, positive = more growth; AID 2326, 2010; 0.4% of 270,000 active; active means well fitted rising curve with a large enough effect; inconclusive means small, poorly fitted or top-dose-only effect; inactive means no such curve, though single readings can be large or run the other way; further: nearly all actives have a fitted effect of over 50% in size
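In this qHTS, NS1 from influenza A is expressed in budding yeast, where it slows growth. Cells are switched from glucose to 2% galactose medium (pH 6.0, -URA), treated with compound, and growth recovery is read at OD600.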
RE007 growth inh: qHTS Assay for Inhibitors of the HIV-1 protein Vpr; S. pombe RE007 Vpr strain, BacTiter-Glo ATP luminescence, 24 h; control for the full effect not named in the record; Potency, µM (doses to about 92.2 µM), inactives show top-dose activity change, negative = less growth; 0.21% of 360,000 active; AID 651644, 2012; active = well fitted falling curve with a large enough effect; inconclusive = small, poorly fitted or top-dose-only effect; inactive = no such curve, though single readings can be large or run the other way;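 further: on the % scale 0 is the no-effect control and ±100 the full control effect; nearly all actives have a fitted effect of over 50% in size; the assay follows cell death caused by Vpr and the record does not say whether a fall means rescue or toxicity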
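Fission yeast RE007 carrying one integrated HIV-1 vpr copy, seeded at OD 0.01 in PMG+AL medium with 23 nL pinned compound. Grown 24 h at 30 degrees; viability read by BacTiter-Glo luminescence after 5 min.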
Lassa entry inh: qHTS for Inhibitors of binding or entry into cells for Lassa Virus | Lassa virus pseudotype entry inhibition, cell reporter; control for the full effect not named in the record | Potency, µM (top dose mostly 37.9 µM), without a hit: at the highest dose activity change, negative = inhibition, most hits filed as inhibitors | 1.2% of 300,000 active; active means well fitted inhibition curve with a large enough effect; inconclusive means small, poorly fitted or top-dose-only effect, or effect the other way; inactive means flat fitted curve, though single readings scatter; tested in HEK293 cells; further: on the % scale 0 is the no-effect control and ±100 the full control effect; nearly all actives have a fitted effect of over 50% in size; luciferase read-out
Marburg entry inh: qHTS for inhibitors of binding or entry into cells for Marburg Virus | Potency, µM (titrated, usually from 37.8 µM), without a hit: at the top dose activity change, negative = inhibition, actives largely listed as inhibitors | AID 540276, 2011 | Marburg virus pseudotyped entry inhibition, cell reporter; control for the full effect not named in the record; about a third of the inactives were read at about 46 µM | 1.8% of 300,000 active; active = well fitted inhibition curve with a large enough effect; inconclusive = small, poorly fitted or top-dose-only effect, or effect the other way; inactive = flat fitted curve, though single readings scatter; tested in HEK293 cells; about a fifth of its hits are not listed in these tables; further: on the % scale 0 is the no-effect control and ±100 the full control effect; luciferase read-out
StopGo reporter: High Throughput Screening for Foot and Mouth Disease Virus Antivirals; human cells with a luciferase reporter of 2A StopGo recoding; control for the full effect not named in the record; Potency, µM (titrated, usually from 57.9 µM), for inactives: at the highest dose signal change, negative = less light; AID 1159524, 2015; 1.2% of 410,000 active; active = well fitted falling curve with a large enough effect; inconclusive = small, poorly fitted or top-dose-only effect; inactive = no such curve, though single readings can be large or run the other way; tested in HEK293T cells; further: on the % scale 0 is the no-effect control and ±100 the full control effect; nearly all actives have a fitted effect of over 45% in size; luciferase light after 4 h
Numbers without * were called inactive; ? = inconclusive; . = not tested or not shown; & = joins results of further samples; [ ] = dose if it differs, or a comment. Unless noted, the call rests on the fitted dose curve; in most records, active means well fitted curve in the direction sought with a large enough effect; inconclusive means small, poorly fitted or top-dose-only effect, or another doubt; inactive means no such curve, though single readings can be large; an effect the other way counts as inactive or inconclusive. Potency means the concentration at half of the fitted maximal effect.

SMILES	SARS PLpro yeast	Cruzain inh Det	Cruzain noTriton	NS1 function inh	RE007 growth inh	Lassa entry inh	Marburg entry inh	StopGo reporter
CC(=O)NC12CC3CC(C)(C1)CC(NC(C)=O)(C3)C2	-1%	1.6%	-15%	5%	-3%	36%[14.3 µM]	1%	12%
N=C(N)SCc1ncccc1O	1%	.	.	4%	17%	.	.	-19%
Nc1nc(CN2CCCCC2)cs1	7%	5.3%	5%	-3%	4%	2%	-1%	5%
COc1ccc(C(=O)n2nc(-c3ccccc3)nc2SC)cc1	3%	2.4%	-7%	-11%	4%	6%	30%	-7%
COc1ccccc1OCC(=O)Nc1ccc(S(=O)(=O)N2CCN(C)CC2)cc1	15%	.	.	1%	15%	12%[46.1 µM]	-2%[46.1 µM]	14%
O=C(CN1CCOCC1)Nc1ccc(Oc2ccc(NC(=O)CN3CCOCC3)cc2)cc1	-2%	3.9%	9%	5%	-4%	-35%[14.3 µM]	4%	16%
Cc1cc(CNC(=O)[C@H](C)[C@@H]2C[C@@]2(C)[C@@H](NC(=O)OCc2ccccc2)c2ccccc2)nn1C	6%	-5.9%&-6.0%	?	-44%	-5%	?	-18%	17%
Cc1ccc2nc(C)c(C(=O)N/N=C/c3cccs3)n2c1	-6%	-11%	-15%	-2%	-2%	?	-21%	1%
Cc1ccc(S(=O)(=O)c2cn(Cc3cccc(C)c3)c3cc4c(cc3c2=O)OCO4)cc1	.	-2.2%	-10%	.	.	?	-19%[46.1 µM]	22%
COc1ccc(NS(=O)(=O)c2ccc(NC(=O)c3ccccc3)cc2)nn1	3%	.	.	.	-6%	1%	-5%[46.1 µM]	-10%
CCOC(=O)c1c(C)n(-c2ccc(OC)cc2)c2ccc(OC(=O)COc3ccccc3)cc12	.	0.2%	-17%	.	.	-26%[46.1 µM]	.	4%
CC(=O)c1cc(-c2ccc(F)cc2)n(CC(=O)NC(C)c2ccccc2)c1C (configuration not stated)	.	-0.1%	9%	.	.	-13%[46.1 µM]	.	1%
CC(=O)c1cc(C#N)c(SCc2ccncc2)nc1C	6%	-2.5%	-6%	-11%	4%	-2%	-13%	-22%
CCN1CCN(c2ccc(NC(=O)c3cccc(S(=O)(=O)N4CCCC4)c3)cc2)CC1	4%	.	.	.	-14%	3%[46.1 µM]	14%	-10%
Cc1ccc(S(=O)(=O)Nc2ccc(C(=O)Nc3ccncc3)cc2)cc1	15%	-2.0%	8%	4%	-13%	-12%	?	15%
O=C(CNS(=O)(=O)c1cccc(C(F)(F)F)c1)NC1CCCCCC1	1%	.	.	.	0%	-11%[46.1 µM]	0%[46.1 µM]	6%
COc1ccc(C(=O)N2CCN(c3ccc([N+](=O)[O-])c(-n4nc(C)cc4C)c3)CC2)cc1	14%	-12%	19%	-2%	11%	7%	23%	-25%
Cc1ccccc1C(=O)NCC(=O)Nc1ccc(C)c(S(=O)(=O)N2CCCCCC2)c1	-2%	.	.	-6%	-3%	?	?	35µM*
Cc1nc(S(=O)(=O)N2CCN(c3cccc(Cl)c3)CC2)cn1C	.	1.2%	22%	.	.	14%[46.1 µM]	.	-16%
COc1cc(Cl)c(NS(=O)(=O)c2ccc3[nH]c(=O)ccc3c2)c(OC)c1	.	-5.7%	1%	.	.	-16%[46.1 µM]	.	-6%
O=C(/C=C/c1ccc(Cl)cc1Cl)c1ccc[nH]1	-2%	.	.	-9%	?	.	.	58%[activator]
CCOc1cc(C)c(Cl)cc1S(=O)(=O)n1cnc2ccccc21	-1%	-1.0%	-3%	-12%	4%	-3%	0%	27%
COc1ccc(CCC(=O)OCC(=O)Nc2ccc3[nH]c(=O)[nH]c3c2)cc1	0%	.	.	.	-4%	7%	0%	-2%
COc1ccc(CCNC(=O)c2ccc3c(c2)N(Cc2cc(C)ccc2C)C(=O)c2ccccc2S3=O)cc1OC (configuration not stated)	.	-0.6%	-7%	.	.	?	-21%[46.1 µM]	-20%
CS(=O)(=O)N1CCc2cc(-c3csc(NC(=O)C(c4ccccc4)c4ccccc4)n3)ccc21	-3%	1.7%	7.9µM*	14%	-1%	-22%	-20%	.
COc1ccc(NC(=O)C2CC(=O)NC(Nc3cccc(C)c3)=N2)cc1 (configuration not stated)	3%	-2.4%	-4%	0%	-3%	-5%	10%	1%
CC(C(=O)Nc1cccc([N+](=O)[O-])c1)[n+]1ccccc1 (configuration not stated)	-2%	.	.	6%	11%	.	.	-1%
CN(C)c1ccc(C2(O)C(=O)c3ccccc3C2=O)cc1	-5%	-1.3%	-2%	-8%	9%	-1%[46.1 µM]	?	14%
COc1ccc(S(=O)(=O)N(C)CC(=O)N2CCOCC2)cc1	4%	3.6%	1%	1%	-6%	0%	?	.
O=C(Nc1ccc(S(=O)(=O)N2CCCCCC2)cc1)c1c(F)cccc1F	-10%	.	.	-18%	15%	?	-9%	-16%
C(=C\c1ccccc1)/CSc1nc2ncccc2[nH]1	-1%	.	.	-33%	-11%	-10%[46.1 µM]	?	-2%
FC(F)(F)C1=CC(c2ccc(Br)cc2)=NCCN1	-6%	-3.1%	-4%	6%	-1%	-11%	-9%	?
Nc1nnc(SC2CCCC2)s1	0%	-9.9%	-5%	-6%	18%	7%	12%	3%
Cc1ccc(-c2nc3ccccn3c2Nc2ccc3c(c2)OCO3)o1	.	-9.8%	3%	.	.	28%[46.1 µM]	-10%[46.1 µM]	-23%
COc1ccc(C(=O)OCc2cc(C)ccc2C)cc1S(=O)(=O)N1CCCC1	-10%	.	.	.	-8%	?	-22%	-17%
COc1cc(C(=S)N2CCCC2)cc(OC)c1OC	4%	.	.	0%	3%	.	.	-8%
Cc1c(CC(=O)N2CCC(C(=O)O)CC2)c(=O)oc2cc3c(cc12)CCC1(CCCCC1)O3	10%	.	.	17%	4%	.	.	-10%
CCN=C1SC(CC(=O)NCCc2ccc(OC)c(OC)c2)C(=O)N1CC (configuration not stated)	-2%	0.3%	-4%	8%	-7%	0%	5%	-11%
CCOC(=O)c1cnc(-n2nc(C)cc2C)nc1NC	-4%	0.3%	15%	-31%	-2%	10%	-7%	46%[activator]
Cc1cccc2c3nc4ccccc4nc3n(CCCN3C(=O)c4ccccc4C3=O)c12	?	-2.8%	8%	13%	2%	6%	9%	1%
COCCCNC(=O)c1c(NC(=O)c2cc(=O)c3cc(C)c(C)cc3o2)sc2c1CCCC2	.	-1.2%	-6%	.	.	3%[46.1 µM]	27%[46.1 µM]	0%
Cc1ccc(NC(=O)CN2C(=O)c3ccccc3Sc3ccc(C(=O)N4CCCC4)cc32)cc1	.	-6.6%	-2%	.	.	-8%[46.1 µM]	.	-10%
CCc1ccc(CNC(=O)c2ccc(NC(=O)N3CCSc4ncccc43)cc2)cc1	.	-11%	1%	.	.	-4%[46.1 µM]	.	-13%
COc1ccc(S(=O)(=O)NCC(c2ccco2)N2CCOCC2)cc1C (configuration not stated)	.	-0.1%	-6%	.	.	-5%[46.1 µM]	.	12%
COC(=O)c1ccc(Cn2c(=O)cc(C)c3c(C)nn(C)c32)cc1	.	0.6%	11%	.	.	1%[46.1 µM]	.	?
Cc1ccc(S(=O)(=O)Nc2cccc(C(=O)N3CCCC3)c2)cc1F	-3%	.	.	.	2%	-2%	1%	25%
CNC(=O)c1c(Cl)cnn1-c1ccccc1	0%	.	.	0%	-13%	?	7%[46.1 µM]	22%
O=C(O)CCCCCNC(=O)CSc1nnc(-c2ccco2)n1-c1ccccc1	3%	.	.	8%	3%	30%	16%	2%
CCOCCCNC(=O)C(NC(=O)CNC(C)=O)c1ccc(Cl)cc1 (configuration not stated)	3%	-0.8%	-5%	1%	6%	-27%	-15%	12%
Cc1ccsc1CN1CCC(C(=O)NCc2ccccc2Cl)CC1	-11%	-1.1%	-9%	7%	0%	-23%	?	?
Cc1cccc(CCNC(=O)c2ccc3c(c2)nc2n3CCC(C)C2)c1 (configuration not stated)	.	3.8%	1%	.	.	16%[46.1 µM]	.	0%
COC(=O)CC1=NN(c2ccc(OC)cc2)C(=O)/C1=C\c1ccc(Cl)cc1	?	-10%	?	?	2%	0%	-1%	?
Cc1cc(C)nc(NS(=O)(=O)c2ccc(NC(=O)Nc3ccccc3)cc2)n1	3%	.	.	.	8%	2%[46.1 µM]	32%[46.1 µM]	61%[activator]
Cc1nc(N)sc1-c1csc(Nc2cccc(C(=O)O)c2)n1	3%	.	.	30%	11%	.	.	1%
COC(=O)c1ccccc1NC(=O)CSc1nc2ccsc2c(=O)n1CCC(C)C	.	3.9%	-3%	.	.	-6%[46.1 µM]	.	-23%
CCCCCC(=O)Nc1ccc(C(=O)COC(=O)c2ccccn2)cc1	0%	.	.	.	5%	2%	12%[46.1 µM]	20%
COc1ccc2[nH]c(=O)c(CN(c3ccc(C)c(C)c3)S(C)(=O)=O)cc2c1	2%	.	.	.	-2%	?	?	-22%
CC(C)NC(=O)COC(=O)c1ccc(O)cc1	-4%	4.6%	-2%	-1%	4%	6%	5%	-1%
Cc1cc(C)n(CC(O)COc2ccccc2C)n1 (configuration not stated)	-1%	.	.	3%	-10%	0%	11%[46.1 µM]	17%
CCOCc1nnc(NC(=O)CSc2ccc(C)cc2)s1	-18%	-3.5%	1%	-3%	-25%	-10%	-6%	-1%
CCCC(=O)OCCn1c(Br)nc2c1c(=O)[nH]c(=O)n2C	3%	-0.4%	-6%	2%	5%	5%	12%&12%	9%
CS(=O)(=O)N(Cc1nc2sc3c(c2c(=O)[nH]1)CCCC3)C1CCCCC1	.	.	.	-45%	13%	1%	?	-10%

An unsorted share of the library; about 4.5% have a hit in one of these screens.
